PV pol inh = inhibitors of poliovirus RNA polymerase binding and polymerization; AID 588519; 0.66% of 150,000 active; % elongation, % (compound at 16.7 µg/mL); poliovirus polymerase elongation, fluorescence polarization; active compounds read low; P03300; in the data active means % elongation below about 90%; further: some results filed as inactive read as strong as hits
Target sequence (P03300 1749-2209 limits assumed): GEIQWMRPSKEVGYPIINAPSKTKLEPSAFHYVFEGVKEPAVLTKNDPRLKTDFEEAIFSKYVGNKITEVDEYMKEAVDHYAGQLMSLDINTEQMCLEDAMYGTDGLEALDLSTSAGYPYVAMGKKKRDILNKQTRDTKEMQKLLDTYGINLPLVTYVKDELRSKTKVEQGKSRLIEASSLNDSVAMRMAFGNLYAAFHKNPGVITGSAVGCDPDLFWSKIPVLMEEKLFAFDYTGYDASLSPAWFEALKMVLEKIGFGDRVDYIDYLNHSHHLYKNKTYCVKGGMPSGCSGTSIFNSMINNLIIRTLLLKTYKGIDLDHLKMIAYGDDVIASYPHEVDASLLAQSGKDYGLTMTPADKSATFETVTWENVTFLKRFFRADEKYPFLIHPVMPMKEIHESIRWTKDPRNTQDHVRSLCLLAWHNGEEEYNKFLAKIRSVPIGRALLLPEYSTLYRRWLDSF
PV pol inh intensity = also measured in PV pol inh; calls as there; % elongation; measured here: total intensity read-out; formula for this scale not given here;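 total fluorescence in place of polarization; lower means less elongation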
* marks the source's active call; other numbers are inactive results.

SMILES	PV pol inh	PV pol inh intensity
CCOC(=O)C1CCCN(C(=O)Cn2nc(C)n3c(cc4c(OC)cccc43)c2=O)C1 (configuration not stated)	102	104
Cn1ccc2c(OCC(=O)NCc3ccccc3Cl)cccc2c1=O	111	108
CCc1ccc(CNC(=O)c2ccc(CS(=O)(=O)Cc3ccccc3C)o2)cc1	113	114
CC1C(=O)Nc2ccc(S(=O)(=O)NCc3ccc(N(C)C)cc3)cc2NC1=O (configuration not stated)	108	111
COc1ccc(NC(=O)c2sc3nc(C(F)(F)F)cc(C)c3c2N)cc1OC	109	117
CC(C)(C)C1CCc2onc(C(=O)Nc3sc4c(c3C#N)CCCC4)c2C1 (configuration not stated)	82*	80*
COc1ccc(NC(=O)Cn2c(=O)oc3cc(S(=O)(=O)NCc4ccccc4)ccc32)c(OC)c1	107	105
CCCc1cc(=O)oc2c3c(ccc12)OCN(Cc1ccc(OC)cc1)C3	103	110
COc1ccccc1C(=O)Nc1ccc2nc(SCCOc3ccccc3C)sc2c1	108	106
COc1ccccc1NC(=O)CSc1nnc(-c2cccc(Cl)c2)o1	103	109
Cc1ccccc1NC(=O)Nc1ccc2nc(N3CCN(C)CC3)cc(C)c2c1	103	106
COCCCNC(=O)Cn1c(=O)n(-c2ccc(C)cc2)c(=O)c2c1c1cc(C)ccc1n2C	105	103
Cc1ccc(NC(=O)c2oc3ccccc3c2NC(=O)Cc2cccs2)cc1	105	105
COc1ccccc1-c1cc2nc(C)c(CCC(=O)NC3CCCCC3)c(C)n2n1	109	107
CCOCCn1ccc2c(OCC(=O)Nc3ccc(OC(F)(F)F)cc3)cccc2c1=O	101	103
O=C(Cn1c(=O)n(-c2ccc(F)cc2)c(=O)c2sc3ccccc3c21)NC1CCCCC1	104	103
CCOC(=O)c1c(C)[nH]c(C)c1S(=O)(=O)N1CCC(C(=O)N2CCN(c3ccccc3)CC2)CC1	109	103
CN(Cc1ccccc1)C(=O)CSc1nc2ccsc2c(=O)n1-c1ccc(F)cc1	101	103
CCOCCn1ccc2c(OCC(=O)Nc3cccc([N+](=O)[O-])c3)cccc2c1=O	111	103
Cc1ccc(-n2ncc(C(=O)NC3CCN(Cc4ccccc4)CC3)c2C2CCN(C(=O)OC(C)(C)C)CC2)cc1C	108	105
Cc1oc(-c2ccc(Cl)cc2)nc1CSCC(=O)NCc1ccccc1Cl	103	111
CC(=O)c1ccc(NS(=O)(=O)c2ccc(-c3cnc(C4CC4)o3)cc2)cc1	101	103
Cc1ccc(CCNC(=O)CN(c2ccc(C(C)C)cc2)S(=O)(=O)c2c(C)nn(C)c2C)cc1	104	105
CCOc1cccc(C2Nc3ccccc3-c3cc(C)nn32)c1O (configuration not stated)	102	96
COc1cc(-c2nnc(SCC(=O)NCc3ccccc3Cl)o2)cc(OC)c1OC	108	108

Next section
SMILES	PV pol inh	PV pol inh intensity
COCCCNC(=O)c1oc2c(c1C)-c1nn(Cc3cccc(Cl)c3)cc1CC2	99	105
CCn1cnc2c(=O)oc3ccc(S(=O)(=O)N4CCN(c5cc(C)ccc5C)CC4)cc3c21	108	108
Cc1ccc(C)c(N(C)C(=O)C2CCN(c3ncnc4c3nc3n4CCCCC3)CC2)c1	112	109
CCc1ccc(C(c2ccccc2)c2c(C)[nH]c3ccccc23)s1 (configuration not stated)	102	106
CCOc1ccccc1Nc1sc(C(=O)c2ccc(Cl)cc2)c(N)c1S(=O)(=O)c1ccccc1	111	116
COc1ccc(Nc2ncnc3c2cnn3-c2ccc(C)cc2)cc1Cl	110	100
COc1ccc2cc(CNc3ccc(C)cc3)c(=O)n(CC(=O)Nc3cccc(Cl)c3C)c2c1	113	109
CCCCN(CCCC)S(=O)(=O)c1ccc2oc(C(=O)NCc3ccc(C)cc3)c(C)c2c1	114	110
COc1ccc(NC(=O)N2CCc3c(sc4c3CCCC4)C2c2ccc(F)cc2)cc1 (configuration not stated)	103	105
CCCOc1ccc(NC(=O)CC2C(=O)N(c3ccc(C)cc3)C(=O)N2C(C)C)cc1 (configuration not stated)	112	104
CCc1cccc(NC(=O)c2cc3c(=O)n(Cc4ccc(OC)cc4)ccc3nc2C)c1	106	114
Cc1ccc(Nc2ccc(N3CCN(C(=O)c4cccc([N+](=O)[O-])c4)CC3)nn2)cc1	108	104
COc1ccc(C(=O)NCCSc2c(C)[nH]c3ccccc23)cc1	104	103
CCOCCCN1C(=O)CN(C2CCCCCC2)C(=O)C1c1ccc(OC(C)C)c(OC)c1 (configuration not stated)	113	110
CCOC(=O)c1ccccc1NC(=O)c1cc2c(s1)-c1ccccc1SC2	107	108
O=C(C1CCC(Cn2c(=O)c3sccc3n(Cc3cccc(F)c3)c2=O)CC1)N1CCCCC1 (configuration not stated)	102	103
CCOC(=O)N1CCc2c(sc(NCc3cc(OC)ccc3OC)c2C(=O)Nc2cc(OC)ccc2OC)C1	106	96
COc1ccc(C)cc1NC(=O)C(=O)NCC(c1cccnc1)N1CCc2ccccc21 (configuration not stated)	112	111
Cc1ccc(NC(=O)C2CCCN2S(=O)(=O)c2cccc3cccnc23)c(C)c1 (configuration not stated)	101	102
COc1ccc(-c2noc(CN(C)S(=O)(=O)c3c(C)cc(C)cc3C)n2)cc1OC	107	109
CCOC(=O)N1CCc2c(sc3c2c(=O)n(Cc2ccccc2)c(=O)n3Cc2ccccc2Cl)C1	105	108
CCCCn1cc(S(=O)(=O)c2ccccc2)c(=O)c2cc(F)c(N3CCN(CCC)CC3)cc21	107	108
Cc1cccc2c1N(Cc1ccccc1OCCC(C)C)C(=O)C2=O	106	106
O=c1c2sc3ccccc3c2n(Cc2cccc(Cl)c2)c(=O)n1Cc1ccco1	108	110
CCOc1ccc(CCNC(=O)c2ccc3nc(N4CCC(C)CC4)sc3c2)cc1OCC	110	111

(cont.)
SMILES	PV pol inh	PV pol inh intensity
Cc1cccc(N2CCN(S(=O)(=O)c3cn(C)c(C)n3)CC2)c1C	99	106
CC(=O)Nc1ccc(NC(=O)CC(C)n2ccc(C)n2)cc1 (configuration not stated)	98	102
COc1ccccc1C(=O)Nc1ccc(NC(=O)c2cccs2)cc1	105	110
CCOc1ccc(C2C(=O)N(C3CCCCC3)CC(=O)N2CCC2=CCCCC2)cc1OC (configuration not stated)	111	110
CCOC(=O)CNC(=O)c1cc2c(=O)n3cccc(C)c3nc2n1C	100	90
CC(C)N1C(=O)C(O)(c2c[nH]c3ccccc23)c2ccccc21 (configuration not stated)	107	108
O=C(NC1CC1)c1ccc(Cn2c(SCc3cccc(F)c3)nc3cccnc32)cc1	107	84
Cn1nc(-c2ccccc2F)c2cc(C(=O)NCc3cccc(Cl)c3)sc21	104	107
CCc1ccc(NS(=O)(=O)c2ccc3[nH]cc(C(=O)NCc4ccc(C)cc4)c(=O)c3c2)cc1	103	106
CCN1CCN(c2ncc3c(n2)CCN(Cc2ccccc2C)C3)CC1	110	103
Cc1ccc(C)c(N2CCN(C(=O)c3cc(S(=O)(=O)N4CCC(C)CC4)cn3C)CC2)c1	107	109
COc1ccc2cc3cc(C(=O)Nc4cc(C)c(Cl)cc4OC)oc3nc2c1	107	110
COC(=O)c1sccc1S(=O)(=O)N1CCN(c2ccccc2)CC1	103	102
COc1ccc(-c2nnc(Nc3ccc(OCC(N)=O)cc3)c3ccccc23)cc1	102	104
COc1ccc(NC(=O)c2ncn(-c3ccccc3)n2)cc1Cl	109	110
COC(=O)c1ccc(NS(=O)(=O)c2ccc3[nH]c4c(c3c2)CCCC4)cc1	104	95
O=C(CSc1nc2c([nH]c3ccccc32)c(=O)n1-c1ccccc1)Nc1ccc2c(c1)OCCO2	109	110
Cc1cc(S(=O)(=O)NCC(c2ccc(N(C)C)cc2)N2CCOCC2)ccc1F (configuration not stated)	106	111
CCOc1ccc(C2=NC(c3ccc(OC)cc3)=Nc3ccc(Cl)cc3N2)cc1	108	111
CCOc1ccccc1CNC(=O)c1cccn1-c1nnc(N2CCCC2)s1	104	115
CC(=O)c1cccc(NC(=O)Nc2c(C)n(C)n(-c3ccccc3)c2=O)c1	109	107
CC1CCc2c(sc(NC(=O)c3ccc(Cl)cc3Cl)c2C#N)C1 (configuration not stated)	107	114
CCC1CN(C(=O)NCc2ccc(F)cc2)c2cc(C)ccc2O1 (configuration not stated)	112	112
COc1cccc(CNC(=O)C(Cc2ccccc2)NS(=O)(=O)c2ccc3c(c2)CCN3C(C)=O)c1 (configuration not stated)	105	105
O=C(Cn1ncc2c3ccccc3n(Cc3ccccc3F)c2c1=O)NCCc1ccc(Cl)cc1	105	104

The list goes on:
SMILES	PV pol inh	PV pol inh intensity
CCC(C)NC(=O)Cn1c(=O)n(-c2cc(OC)cc(OC)c2)c(=O)c2ccccc21 (configuration not stated)	108	109
CN1C(=O)c2ccccc2Sc2ccc(NC(=O)N3CCN(c4cccc(Cl)c4)CC3)cc21	99	106
CCOC(=O)C1CCCN(S(=O)(=O)c2ccc3[nH]c(=O)ccc3c2)C1 (configuration not stated)	108	113
COc1ccc(CNC(=O)CCNS(=O)(=O)c2ccc3c(c2)CCCC(=O)N3)cc1	104	98
NC(=O)C1CCN(S(=O)(=O)c2ccc(N3CCCCS3(=O)=O)cc2)CC1	106	104
COc1ccc(-c2c(C)nn3c(C(F)(F)F)cc(-c4ccc(Br)cc4)nc23)cc1	107	107
CCOC(=O)c1c(NC(=O)COc2ccccc2Br)sc2c1CCCCC2	94	97
CCOC(=O)c1ccc(NC(=O)c2c(NCc3cccs3)sc3c2CCCCC3)cc1	127	126
CCNc1nc(Oc2ccc(=O)n(-c3ccccc3)n2)nc(N(C)C)n1	109	110
Cc1cc(C)cc(NC(=O)c2ncn(-c3ccccc3)n2)c1	109	110
Cc1cccc(NC(=O)c2cc(S(=O)(=O)N3CCc4ccccc43)ccc2F)c1C	102	105
COc1ccccc1NC(=O)c1cc(C2CC2)nc2c1c(C)nn2-c1ccc(C)cc1	107	113
CCN(CC)c1ccc(NC(=O)Cn2c3ncccc3c(=O)n2-c2ccccc2)c(C)c1	107	108
Cc1cccc(C(C)C)c1NC(=O)Cn1c(=O)oc2cc(S(=O)(=O)N3CCCC3)ccc21	103	104
CCC(=O)N1c2ccccc2CC1C(=O)NCCN1CCN(c2cccc(C)c2C)CC1 (configuration not stated)	103	101
CC(C)OCCCn1c(SCC(=O)c2ccccc2)nc2c(sc3ccccc32)c1=O	109	107
CCCC(=O)N1CC(=O)Nc2ccc(Cl)cc2C1c1ccccc1 (configuration not stated)	105	108
COc1ccc(-c2nn(-c3ccccc3)cc2C(=O)Nc2ccccc2OC)cc1	109	105
CCCc1cc(N2CCN(c3ccccc3F)CC2)n2cnnc2n1	107	104
CCOc1ccc(C(=O)Nc2c(C(=O)c3ccc(OC)cc3)oc3ccccc23)cc1	106	110
Cc1nc2cccnc2n1-c1cccc(C(=O)NCCc2ccc(S(N)(=O)=O)cc2)c1	112	112
CCNc1ccc(-c2nc(-c3ccccn3)no2)cc1[N+](=O)[O-]	110	106
COc1ccc(C2N=C(N)Nc3nc4ccccc4n32)c(OC)c1OC (configuration not stated)	106	110
Cc1ccc2c(c1)N(C(=O)CCC(=O)NCc1cccc(F)c1)CC(C)O2 (configuration not stated)	107	109
COC(=O)c1ccc(CSc2nc3c([nH]c4ccccc43)c(=O)n2-c2cc(C)cc(C)c2)o1	117	103

Structures above that contain a nitro group on carbon, in the order listed:
SMILES	PV pol inh	PV pol inh intensity
CCOCCn1ccc2c(OCC(=O)Nc3cccc([N+](=O)[O-])c3)cccc2c1=O	111	103
Cc1ccc(Nc2ccc(N3CCN(C(=O)c4cccc([N+](=O)[O-])c4)CC3)nn2)cc1	108	104
CCNc1ccc(-c2nc(-c3ccccn3)no2)cc1[N+](=O)[O-]	110	106

(cont.)
SMILES	PV pol inh	PV pol inh intensity
CCC1CN(C(=O)Nc2ccc(C)c(F)c2)c2ccccc2S1 (configuration not stated)	106	106
O=C(Nc1ccc2nc(SCCOc3ccccc3Cl)sc2c1)c1ccc2c(c1)OCO2	105	106
Cc1ccc(/C=C/c2onc(C)c2S(=O)(=O)N2CCC(C(=O)NCc3ccc(Cl)cc3)CC2)cc1	102	106
COc1ccc(C(=O)NCc2ccc3c(c2)CCN3C(=O)c2cccc(C)c2)cc1OC	102	98
Cc1ccc(N(C(=O)c2cccc(C)c2)S(=O)(=O)c2ccc(Cl)cc2)cc1	103	111
CCOC(=O)c1[nH]c(C)c(CCC(=O)NC(C)c2ccccc2)c1C (configuration not stated)	107	113
CCc1nnc(SCc2nc(-c3ccccc3Cl)oc2C)c2cc3sc(C)cc3n12	108	110
CCOc1ccccc1NC(=O)c1cc2c(=O)oc3ccccc3c2s1	115	111
CCOc1ccc(NC(=O)c2cc(S(=O)(=O)N3CCCC3)c[nH]2)cc1	103	103

Entries of single compounds as entered above:
Profile of O=C(Nc1ccc2nc(SCCOc3ccccc3Cl)sc2c1)c1ccc2c(c1)OCO2 = PV pol inh: 105; PV pol inh intensity: 106
Profile of CCOc1ccccc1NC(=O)c1cc2c(=O)oc3ccccc3c2s1 = PV pol inh: 115; PV pol inh intensity: 111
Profile of CCOc1ccc(NC(=O)c2cc(S(=O)(=O)N3CCCC3)c[nH]2)cc1 = PV pol inh: 103; PV pol inh intensity: 103

Random excerpt: six records from the list, in no set order.
SMILES	PV pol inh	PV pol inh intensity
CC(C)(C)C1CCc2onc(C(=O)Nc3sc4c(c3C#N)CCCC4)c2C1 (configuration not stated)	82*	80*
CCOC(=O)c1c(NC(=O)COc2ccccc2Br)sc2c1CCCCC2	94	97
Cc1cc(C)cc(NC(=O)c2ncn(-c3ccccc3)n2)c1	109	110
CCOC(=O)c1ccc(NC(=O)c2c(NCc3cccs3)sc3c2CCCCC3)cc1	127	126
CCN(CC)c1ccc(NC(=O)Cn2c3ncccc3c(=O)n2-c2ccccc2)c(C)c1	107	108
CCn1cnc2c(=O)oc3ccc(S(=O)(=O)N4CCN(c5cc(C)ccc5C)CC4)cc3c21	108	108

Some of the compounds tested (hit frequency here may not be typical).
